Bioassay records from PubChem BioAssay.
BJeLR lethal: BJeLR cell viability loss | AID 1554 | BJeLR (HRASV12) viability, CellTiter-Glo ATP luminescence, 48 h; reference of the scale not given here | 300,000 compounds, 0.17% hits | inhibition, % (concentration not given with the values);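 active = replicate mean above 50%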;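 note: 50 nL library stock added to about 25 µL; numbers are from one replicate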
Mtb hypoxia rep: Mtb hypoxia fluorescent reporter inhibition. M. tuberculosis hypoxia-regulated fluorescent reporter, fluorescence. fluorescence inhibition, % (no concentration beside the values). 300,000 compounds, 0.1% hits. AID 1159583;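 active = 35 to 45% if threefold the growth effect, above 45% if 1.5-fold the growth effect; inactive = the rest, general growth blockers included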;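 note: wells of about 50 µL received 100 nL stock; 0% = vehicle wells and 100% = reference inhibitor wells; whole bacteria with a GFP reporter of the hypoxia response; strong numbers were not always called active; many hits fall short of the cut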
Sa ugtP lethal: kills S. aureus RN4220 lacking UgtP | S. aureus RN4220 ugtP deletion, OD600 growth, 16 h; some inactives read as strong as hits | growth inhibition, % (no concentration beside the values) | 330,000 compounds, 0.54% hits | AID 1259309;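 active = z-score under -3 and OD600 up to 0.15 on both plates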;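 note: plate controls were untreated wells for no effect and antibiotic for full effect; wells of about 80 µL received 100 nL stock; the first replicate is given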
Sa RN4220 lethal: kills Staphylococcus aureus RN4220. 330,000 compounds, 0.33% hits. S. aureus RN4220 growth, OD600, 16 h. inhibition, % (concentration not given with the values);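 active = z-score of -3 or lower and OD600 up to 0.18 on both plates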;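 note: plate controls were untreated cells for no effect and reference antibiotic for full effect; stock transfer was 100 nL into about 80 µL; one replicate is shown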
Bead autofluor: counter-screen for toxin protease inhibitors: compound fluorescence; compound autofluorescence counterscreen, microsphere flow cytometry; hits give high values; fluorescence intensity (no concentration beside the values); 360,000 compounds, 3.1% hits;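 active = at least 3 SD above the mean of all compounds, about 16000 in these data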;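 note: 100 nL of 1 mM stock went into each well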
PrP UTR inh: inhibition of PrP 5' UTR reporter expression | inhibition, % (no concentration beside the values) | 340,000 compounds, 0.35% hits | cell-based PrP 5' UTR mRNA reporter, plate reader;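 active = every replicate at 50% or more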;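 note: 0 = median of the neutral control wells; tested in H4 reporter cells; numbers are from one replicate; inactives centre near -14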
Mtb hypoxia rep growth: recorded beside Mtb hypoxia rep, whose call it bears; growth inhibition, %; measured here: M. tuberculosis growth (absorbance);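 0% = vehicle and 100% = reference antibiotic; read after six days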
* marks the source's active call; other numbers are inactive results; . = no result given. Random draw from the library (roughly 4% active in at least one column).

SMILES	BJeLR lethal	Mtb hypoxia rep	Mtb hypoxia rep growth	Sa ugtP lethal	Sa RN4220 lethal	Bead autofluor	PrP UTR inh
CC(=O)NC(Cc1c[nH]c2ccccc12)C(=O)OCC(=O)Nc1ccc2c(c1)OCO2 (stereo not drawn)	-1	.	.	-7	4.6	4774	5
CC(O)[C@H]1CC[C@H]2[C@@H]3CC[C@H]4C[C@@H](O)CC[C@]4(C)[C@H]3/C(=N/O)C[C@]12C (stereo partly drawn)	2	.	.	.	.	4109	-6
CCn1c(SCC(=O)c2ccccc2)nnc1-c1cc2cc(Br)ccc2o1	3	.	.	-8	-0.7	2674	-21
CCOc1ccc(NS(=O)(=O)c2ccc(SC)cc2)cc1	0	-3	-2	-9	-8.9	3177	-12
COc1ccc(N(C(C)C(=O)N2CCC(Cc3ccccc3)CC2)S(C)(=O)=O)cc1 (stereo not drawn)	11	8	17	2	8.7	4498	-15
CC1CN(C(C)CO)C(=O)c2cc(NC(=O)CCN3CCOCC3)ccc2OC1CN(C)S(=O)(=O)c1ccc(F)cc1 (stereo not drawn)	.	1	0	-9	3.2	.	.
COc1ccc(CNC(=O)C2CCN(S(=O)(=O)c3cccc(C(F)(F)F)c3)CC2)cc1	.	4	-11	8	3.6	4031	-11
Cc1ccc(SCc2cc(=O)[nH]c(N3CCN(Cc4ccc5c(c4)OCO5)CC3)n2)cc1	5	.	.	1	0.3	2698	0
Cn1cc(Br)c(C(=O)Nc2nccs2)n1	20	12	9	8	3.3	10415	-19
CC(O)C(O)C(O)C(O)C=NNC(=O)c1ccccc1 (stereo not drawn)	.	8	7	6	-1.6	.	.
CC(=O)c1ccc(-n2nnnc2SCC(=O)NNC(=O)c2ccco2)cc1	-7	3	4	4	2.1	10655	-27
COc1ccc(N(C)S(=O)(=O)c2ccc3c(c2)CCN3C(=O)C2CC2)c(OC)c1	1	-1	7	-5	8.1	5250	-4
O=C(NCCCc1nc2ccccc2[nH]1)c1cccs1	14	-5	2	2	3.2	3312	-16
Cc1nc(N2CCOCC2)c2oc3ccccc3c2n1	4	-1	12	-14	4.6	5737	-2
Cc1ccc(NC(=O)c2ccc(Cl)cc2[N+](=O)[O-])nc1	23	-2	9	10	4.2	2088	-126
COc1ccc2nc(/N=C/c3c(O)n(-c4cccc(Cl)c4)c(=O)[nH]c3=O)sc2c1	6	.	.	0	4.6	2587	-9
CN1CCN(C(=O)C2C3C=CC(C3)C2C(=O)O)CC1 (stereo not drawn)	2	3	3	-5	-12	2892	8
O=c1cc(CSc2nnnn2-c2ccccc2)nc(Nc2ccc(F)cc2)[nH]1	-2	1	9	-8	7.7	23279*	-20
O=C1/C(=N\S(=O)(=O)c2cccs2)C([n+]2ccccc2)=C([O-])c2ccccc21	9	-4	5	8	7.8	4537	-10
CSc1ccccc1OCc1cc(C(=O)N2CCN3CCCC3C2)no1 (stereo not drawn)	0	1	-13	4	2.1	6171	-22
O=C(CCC(=O)NC1CCCCC1)NN=Cc1ccncc1	.	5	5	10	0.4	.	.
COCCN(Cc1ccccc1)P(=O)(O)c1ccccc1OCC(=O)O	2	.	.	.	.	2102	-6
CN(Cc1ccccc1F)C(=O)CN1c2cccc3cccc(c23)S1(=O)=O	1	5	3	2	2.1	6163	-4
Cc1cccc(N(C2C=CS(=O)(=O)C2)S(=O)(=O)c2ccccc2)c1 (stereo not drawn)	-11	.	.	5	2.7	3171	-27
Fc1ccccc1C1CCN(Cc2nc(CC3CC3)no2)C1 (stereo not drawn)	4	5	-4	4	0.3	4725	-50
(further entries)
SMILES	BJeLR lethal	Mtb hypoxia rep	Mtb hypoxia rep growth	Sa ugtP lethal	Sa RN4220 lethal	Bead autofluor	PrP UTR inh
O=C(c1ccccc1)c1nn(-c2cccc(Cl)c2)c2nc(-c3ccccc3)cc(=O)n12	0	3	3	-1	-17	3263	-11
CCc1ccc(O)c(N=Cc2ccccc2O)c1	-5	2	6	1	7.1	11971	-31
Cc1ccc(-n2nc3c(=O)n(CC(=O)NCc4ccccc4)nc(C)c3c2C)cc1	-2	4	2	5	2.6	5390	10
O=c1cc(C(F)(F)F)[nH]c2ccccc12	12	17	8	2	4.2	4196	-10
COCC(=O)Nc1nnc(C2CCCCC2)s1	-4	6	11	-2	1.0	3288	-20
COc1ccc(-c2nc(CS(=O)CC(=O)NCCN3CCCCC3C)c(C)o2)cc1OC (stereo not drawn)	-8	-4	-2	-3	-3.4	4155	-7
N/C(=N\NS(=O)(=O)c1cc(C(F)(F)F)cc(C(F)(F)F)c1)c1ccccn1	0	11	-4	6	3.9	6099	-34
COc1ccc(N(C(=O)CNC(=O)c2cccs2)C(C(=O)NCC2CCCO2)c2ccccc2)c(OC)c1 (stereo not drawn)	-2	-7	5	1	3.0	5668	8
Cc1ccc(N=Nc2c(C)[nH][nH]c2=O)c(C)c1	0	11	12	-1	2.7	4533	-34
CCO[C@H]1OC(C(N)=O)=C[C@@H](c2csc3ccccc23)[C@@H]1CCCO	1	.	.	.	.	2947	-8
Cc1ccc(C(=O)OCC(=O)Nc2cccc(Cl)c2C)c(O)c1	8	7	-7	4	-0.5	4961	-80
CN(C)S(=O)(=O)c1cc([N+](=O)[O-])ccc1N1CCCCCC1	1	.	.	0	0.1	4823	-9
CNc1nc(Cl)c(SC)c(NC2CCCCC2)n1	2	7	-3	17	8.6	2121	12
O=[N+]([O-])c1ccccc1N=NNc1ccccc1	.	12	11	2	10	4256	-108
Cc1ccc(C=NNC(=O)/C(=C\Nc2nccc(C)n2)NC(=O)c2ccccc2)cc1	.	-2	9	9	5.2	.	.
COC(=O)C1=C(c2ccc(F)cc2F)CC2CCC1N2C(=O)N1CCCC1 (stereo not drawn)	.	4	1	-4	4.2	.	.
Cc1c(NC(=O)CCCOc2ccccc2)cccc1[N+](=O)[O-]	-17	0	5	1	0.5	3726	-12
CC(=O)Nc1sc2c(c1C(N)=O)CCN(Cc1ccccc1)C2	1	5	12	8	2.1	3688	7
CC(C)(C)c1ccc(C(=O)NC(=S)Nc2sc3c(c2C#N)CCC3)cc1	-21	-8	7	-5	-1.6	2498	-17
COc1ccc(NS(=O)(=O)c2ccc(NC(=S)NC(=O)/C=C/c3ccc(C)cc3)cc2)nn1	14	.	.	.	.	2214	-1
CCOC(=O)c1c(-c2ccc(-c3ccccc3)cc2)csc1NC(=O)CCC(=O)O	-1	7	6	15	5.1	3944	.
Cc1cc(NC(=O)c2cccc(S(=O)(=O)N3CCC(C)CC3)c2)no1	-4	5	7	7	2.5	5883	-12
Oc1ccc(NCc2cccs2)cc1	-20	0	-1	1	-2.3	3738	-3
Cc1ccc(-c2nnn(CC(=O)N(Cc3ccccc3)C(C(=O)NC3CCCC3)c3ccncc3)n2)o1 (stereo not drawn)	-10	3	16	4	2.3	10408	7
O=C(c1ccc(Cl)c(S(=O)(=O)N2CCCCC2)c1)N1CCCC(C(F)(F)F)C1 (stereo not drawn)	.	6	-1	-2	2.3	2897	-29

Overlap with the part before: 7 entries, then new ones.
SMILES	BJeLR lethal	Mtb hypoxia rep	Mtb hypoxia rep growth	Sa ugtP lethal	Sa RN4220 lethal	Bead autofluor	PrP UTR inh
CC(C)(C)c1ccc(C(=O)NC(=S)Nc2sc3c(c2C#N)CCC3)cc1	-21	-8	7	-5	-1.6	2498	-17
COc1ccc(NS(=O)(=O)c2ccc(NC(=S)NC(=O)/C=C/c3ccc(C)cc3)cc2)nn1	14	.	.	.	.	2214	-1
CCOC(=O)c1c(-c2ccc(-c3ccccc3)cc2)csc1NC(=O)CCC(=O)O	-1	7	6	15	5.1	3944	.
Cc1cc(NC(=O)c2cccc(S(=O)(=O)N3CCC(C)CC3)c2)no1	-4	5	7	7	2.5	5883	-12
Oc1ccc(NCc2cccs2)cc1	-20	0	-1	1	-2.3	3738	-3
Cc1ccc(-c2nnn(CC(=O)N(Cc3ccccc3)C(C(=O)NC3CCCC3)c3ccncc3)n2)o1 (stereo not drawn)	-10	3	16	4	2.3	10408	7
O=C(c1ccc(Cl)c(S(=O)(=O)N2CCCCC2)c1)N1CCCC(C(F)(F)F)C1 (stereo not drawn)	.	6	-1	-2	2.3	2897	-29
CCCCNC(=O)CSc1nc(O)c(Cc2ccc(OC)cc2)c(=O)[nH]1	12	-9	-5	-4	0.4	4368	-13
Nc1nonc1-n1nnc(C(=O)NN=C/C=C/c2ccccc2)c1CSC1=NCCS1	.	15	11	0	4.8	.	.
NC(=O)COC(=O)CCCSc1nc2ccccc2s1	0	-2	15	2	-0.3	4438	-12
CN(Cc1ccco1)C(=O)c1c[nH]c2ccc(S(=O)(=O)Nc3ccc4c(c3)OCCO4)cc2c1=O	-9	-1	-2	6	6.0	1853	-8
C=CCc1cccc(Cl)c1OCCCNC1CCCC1	8	1	-5	11	3.2	3875	-22
CCOC(=O)Cc1csc(NC(=O)Cn2c(=O)oc3ccccc32)n1	10	-6	-4	-4	3.6	4114	-10
C=CCN1c2ccccc2[C@]23C[C@@H](C(=O)OC)N(C(=O)OCC)C2=NC(C(=O)OC)=C(C(=O)OC)[C@H]13	6	.	.	.	.	3890	-20
CC12CN3CC(C)(CN(C1)C3c1ccc3ccccc3c1O)C2=O (stereo not drawn)	4	11	1	2	2.0	3703	1
Cn1cnnc1SCC(=O)NNC(=O)c1ccc(Cl)cc1	-9	4	-4	4	1.4	1957	-9
CCCSc1nc2sc3c(c2c(=O)[nH]1)CCN(Cc1ccccc1)C3	-6	.	.	5	14	8728	-12
COc1ccc(C)cc1NC(=O)NNC(=O)C1CCC(C(C)(C)C)CC1 (stereo not drawn)	-9	12	6	9	-3.7	4261	-9
COc1ccc(/C=N/NC(=O)C(=O)NCC2CCCO2)cc1 (stereo not drawn)	2	.	.	.	.	2444	-23
O=C(CSC1c2ccccc2-c2ccccc21)N/N=C/c1ccccc1C(=O)O	-3	.	.	.	.	4347	-12
COc1ccc(NC2CCCN(C(=O)c3ccc(C)c(N4CCNC4=O)c3)C2)cc1 (stereo not drawn)	0	4	6	1	0.4	5507	-2
Oc1ccc(C(=S)N2CCN(Cc3ccccc3)CC2)cc1	13	2	0	-2	0.4	3578	-14
NC1=NCC(CC2CCCCC2)N1CCc1cc(C(F)(F)F)cc(C(F)(F)F)c1 (stereo not drawn)	.	8	10	101*	101*	.	.
COc1ccc(-c2cc3ccc(O)cc3oc2=O)cc1	-6	2	2	-4	3.7	4612	-52
COc1ccc(OC)c(C2=C[N+](=O)C(C)(C)C(C)(C)N2[O-])c1	3	.	.	13	1.3	2067	-10
Nc1cccc(N2C(=O)c3cccc4c(N)ccc(c34)C2=O)c1	-2	.	.	.	.	4624	12
COc1ccc(CCNC(=O)c2ccc(Cl)nc2)cc1	-16	14	10	15	0.6	4637	-14
CCOc1nc(Nc2ccc(F)cc2)nc(N2CCN(c3ccc(OC)cc3)CC2)n1	-13	.	.	-1	1.0	3064	0
O=c1[nH]c2ccc(N/C(=N/S(=O)(=O)c3ccccc3)c3ccccc3)cc2[nH]1	1	.	.	.	.	2673	5
O=C(CN1CCN(c2ccccc2)CC1)Nc1ccc(Oc2ccccc2)cc1	-3	-4	-4	1	-0.6	4270	-9
Cc1ccc(Cn2ccc(NC(=O)c3cc(-c4ccc(F)cc4)on3)n2)cc1	7	5	1	-2	0.7	24044*	-19
CN1CCc2nc(SCC(=O)Nc3ccc(Cl)cc3)c(C#N)cc2C1	-7	.	.	4	3.7	1979	-56

2 records picked at random from those above, as already listed:
SMILES	BJeLR lethal	Mtb hypoxia rep	Mtb hypoxia rep growth	Sa ugtP lethal	Sa RN4220 lethal	Bead autofluor	PrP UTR inh
CCOC(=O)Cc1csc(NC(=O)Cn2c(=O)oc3ccccc32)n1	10	-6	-4	-4	3.6	4114	-10
CC12CN3CC(C)(CN(C1)C3c1ccc3ccccc3c1O)C2=O (stereo not drawn)	4	11	1	2	2.0	3703	1
